HNF4A DNA FP: change in binding of human HNF4 alpha to DNA. P41235. HNF4a-FITC DNA binding, fluorescence polarization, 1 h. activity change, % at 10 µM. 0.3% of 360,000 active. AID 1224865; in the data active means activity change above about 30%, passing the limit was not always enough;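 further: controls were the assay level and a saturating level of protein; the project sought stronger binding though the title names inhibitors; some compounds called inactive have numbers as strong as hits; positive values seem to mean higher polarization but the record does not say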
MLL AF4-AF9 inh: MLL-AF4/AF9 protein interaction inhibition | P42568 | AlphaScreen, biotin-AF4 peptide binding to FLAG-AF9 | inhibition, % at 10 µM | 0.47% of 350,000 active | AID 651704;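 active means every replicate reaching a set inhibition limit, whatever the replicate mean, cut at about 25% in these data; inconclusive means mean inhibition reaches that limit but some replicates miss it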;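 further: 0% = plate neutral control median and 100% = total signal loss; the record names both 10 and 1 µM as test concentration; the first replicate is given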
Target sequence (P42568 whole entry, looked up): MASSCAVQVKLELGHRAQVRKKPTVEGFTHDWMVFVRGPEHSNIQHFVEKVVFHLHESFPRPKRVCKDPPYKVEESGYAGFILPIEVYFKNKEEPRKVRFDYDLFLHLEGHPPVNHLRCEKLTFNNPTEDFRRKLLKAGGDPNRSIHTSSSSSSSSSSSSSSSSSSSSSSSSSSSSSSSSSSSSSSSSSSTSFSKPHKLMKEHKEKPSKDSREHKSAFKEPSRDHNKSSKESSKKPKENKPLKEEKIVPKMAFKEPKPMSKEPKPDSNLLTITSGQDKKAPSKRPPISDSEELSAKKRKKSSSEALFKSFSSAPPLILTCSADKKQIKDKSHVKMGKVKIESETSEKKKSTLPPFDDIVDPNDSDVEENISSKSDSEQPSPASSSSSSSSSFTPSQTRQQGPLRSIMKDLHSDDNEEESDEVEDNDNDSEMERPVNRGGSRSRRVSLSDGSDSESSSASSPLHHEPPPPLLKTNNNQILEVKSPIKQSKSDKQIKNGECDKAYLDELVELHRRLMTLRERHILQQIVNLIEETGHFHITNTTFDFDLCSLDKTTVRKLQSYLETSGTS
E coli growth: E. coli growth inhibition; OD600 absorbance (concentration not given with the values); Escherichia coli growth, OD600, 23 h; active compounds read low; 0.21% of 330,000 active;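 active means OD600 absorbance below the run mean of sample wells minus 3.6 SD, in any replicate, cut at about 0.56 in these data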;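 further: stock transfer was 300 nL into about 60 µL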
FGF22 binding: shifts melting point of recombinant human FGF22; calls only at 9.99 µM; AID 651658; Q9HCT0; recombinant FGF22 thermal shift, SYPRO orange fluorescence; percent of sucrose octasulfate shift, DMSO zero; 1.5% of 340,000 active;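 active means melting point raised past a set limit in the mean and every replicate; inconclusive means no clear call; three in four hits are not shown here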
Target sequence (Q9HCT0 whole entry, looked up): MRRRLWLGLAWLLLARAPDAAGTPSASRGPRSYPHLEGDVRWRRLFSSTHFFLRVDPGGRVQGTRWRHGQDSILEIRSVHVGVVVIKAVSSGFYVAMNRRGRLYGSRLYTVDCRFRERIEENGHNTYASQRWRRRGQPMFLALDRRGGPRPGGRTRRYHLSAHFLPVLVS
rRNA inh HTS: inhibits bacterial ribosomal RNA function over humanized ribosomes. E. coli WT GFP vs humanized-ribosome RFP mutants, fluorescence, 24 h; active compounds read low; DMSO median 0, no signal -100. GFP signal change (wild-type ribosome), % (test concentration not listed). 1.6% of 350,000 active. AID 720706;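 active means significant combined selectivity score with lowered wild-type GFP, culture density cut under 30%, mutant RFP and density less affected; inactive means any of these conditions unmet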; further: one replicate is shown; some compounds called inactive have numbers as strong as hits
ALR inh: inhibitors of human sulfhydryl oxidase ALR | purified ALR, DTT oxidation, H2O2 HRP-luminol luminescence | inhibition, % (test concentration not listed) | 3.8% of 290,000 active | AID 485317;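 active means mean and each replicate at 75% or more; inconclusive means only one of the two met; inactive means neither met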;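 further: stock transfer was 7.5 nL into about 7.5 µL; 0% = neutral wells and 100% = wells with inactivated enzyme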
Target sequence (P55789 whole entry, looked up): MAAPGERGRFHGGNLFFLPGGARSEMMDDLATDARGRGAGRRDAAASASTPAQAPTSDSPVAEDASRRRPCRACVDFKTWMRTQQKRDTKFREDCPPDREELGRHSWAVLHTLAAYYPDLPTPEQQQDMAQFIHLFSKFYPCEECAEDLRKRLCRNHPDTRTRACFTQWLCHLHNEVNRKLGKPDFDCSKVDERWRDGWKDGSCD
Vif A3G: inhibitors of Vif binding to APOBEC3G peptide, primary screen, biochemical, TR-FRET, GST-Vif 1-94, biotin-A3G peptide, dose response retest (AID 1117319). TR-FRET GST-Vif / biotin-A3G peptide binding; higher % means a stronger effect; test concentration not given here; strong numbers were not always called active. inhibition, %, or IC50 in µM where a hit was titrated. 0.57% of 260,000 active;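 active means above the screen mean plus three standard deviations and confirmed in dose response; inconclusive means results disagree or hit not tested in dose response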;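 further: Vif residues 1-94 fused to GST binding biotinylated APOBEC3G peptide 110-148; 0% = full assay without inhibitor and 100% = GST in place of GST-Vif; retest series ran down from 100 µM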
rRNA inh HTS OD600: recorded beside rRNA inh HTS, whose call it bears; OD600 change, %; measured here: OD600 growth;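 optical density of the mix in the first replicate; 0 = DMSO median and -100 = no signal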
rRNA inh HTS RFP: also measured in rRNA inh HTS; calls as there; RFP signal change, %; measured here: RFP humanized mutant strains;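 first replicate; 0 = DMSO median and -100 = no signal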
Starred values were filed as active, the others as inactive; i = inactive; ? = inconclusive; . = not tested or not shown; & = joins results of further samples. Only part of the results is shown, so the mix of outcomes need not match the whole.

SMILES	HNF4A DNA FP	MLL AF4-AF9 inh	E coli growth	FGF22 binding	rRNA inh HTS	rRNA inh HTS OD600	rRNA inh HTS RFP	ALR inh	Vif A3G
CCOC(=O)N1CCC(N2Cc3cccc(C(=O)Nc4ccc(F)cc4)c3C2=O)CC1	-0.8	.	0.7	.	.	.	.	-12	-1%
COc1ccccc1S(=O)(=O)N(C)C[C@@H]1OCc2ccccc2-c2c(n(C)c3ccccc23)C(=O)N([C@@H](C)CO)C[C@H]1C	.	2.4	.	i	0	4	0.0	.	.
CCn1cc([N+](=O)[O-])c(C(=O)N2N=C(c3ccc4ccccc4c3)CC2c2cc(Br)ccc2O)n1 (configuration not stated)	1.1	.	0.71	.	.	.	.	-4	3%
NC(=O)CCS(=O)(=O)c1ccc(Cl)cc1	3.1	0.5	0.72	i	6	12	-0.8	-2	-5%
O=C1CC(N2CCN(S(=O)(=O)c3cccc(C(F)(F)F)c3)CC2)C(=O)N1Cc1ccccc1 (configuration not stated)	-1.0	.	0.72	.	.	.	.	3	0%
COc1ccc2c(c1OC)C(=O)O[C@@H]2[C@H]1c2c(cc3c(c2OC)OCO3)CCN1C	2.1	-0.1	0.77	i	5	3	-7.1	-8	?
Cc1ccc(-c2cnc3c(c2)C(=O)N([C@H](C)CO)C[C@H](C)[C@H](CN(C)C(=O)Cc2ccccc2)O3)cc1	.	-1.6	.	i	-4	-5	0.5	.	.
COc1ccc(-c2ccc3c(c2)O[C@H](CN(C)C(C)=O)[C@H](C)CN([C@H](C)CO)S3(=O)=O)cc1	.	2.0	.	i	-3	0	-1.7	.	.
Cc1noc(C)c1S(=O)(=O)Nc1ccccc1N1CCOCC1	1.1	.	0.69	i	-9	-2	-2.0	4	?
Fc1ccc(NC(=S)Nc2cc(-c3ccccc3)[nH]n2)cc1Cl	-4.2	0.0	0.65	i	-54*	-28*	-17*	0	-9%
Cc1cccc(NC(=O)C23CCC(C)(/C(=N/O)C2)C3(C)C)c1 (configuration not stated)	-3.6	.	.	.	-17	-19	-4.9	-12	-1%
O=S(=O)(NC(CO)Cc1ccccc1)c1cc(Cl)ccc1F (configuration not stated)	-1.4	0.3	.	i	-4	-7	3.9	.	.
CC(OC(=O)Cn1ccccc1=O)C(=O)Nc1cc(Cl)cc(Cl)c1 (configuration not stated)	-1.2	1.8	0.69	i	0	-3	0.6	-10	.
C[C@H](CO)N1C[C@H](C)[C@H](CN(C)S(=O)(=O)c2cccs2)OCCCC[C@H](C)Oc2ccc(NS(=O)(=O)c3cn(C)cn3)cc2C1=O	.	-1.8	.	i	1	-1	-0.5	.	.
CCNC(=S)N1CCN(C(=O)c2ccco2)CC1	-1.1	.	0.73	.	.	.	.	-3	-1%
COC(=O)c1ccc(NC(=O)CCN2CCN(c3ccccc3)CC2)cc1	7.7	.	.	.	.	.	.	7	-5%
COc1ccccc1CNCC(=O)Nc1ccc(N2CCOCC2)cc1	-1.3	.	0.69	.	.	.	.	99*	66%
CCCCS(=O)(=O)N1CCN(S(=O)(=O)c2ccc(Cl)s2)CC1	4.4	2.1	0.72	i	12	21	1.6	-8	.
N#C/C(=C\c1ccco1)c1nc2ccccc2s1	7.0	.	0.68	.	.	.	.	14	12%
CC(C)CCn1c(=O)c2ccccc2n2c(CN3CCCC3)nnc12	2.8	1.0	0.66	.	-2	4	-3.7	-2	-10%
COC(=O)C[C@H]1C=C[C@@H](NS(=O)(=O)c2ccc(OC)cc2)[C@H](CO)O1	.	-1.6	.	i	3	9	-3.5	.	.
COc1ccc(C(=O)OCC(=O)NCc2ccc3c(c2)OCO3)cc1S(=O)(=O)N1CCOCC1	0.8	-2.6	0.7	i	-3	-4	-1.1	-3	17%
CN(C)CCCNC(=O)[C@H]1[C@H](CO)[C@H]2Cn3c(ccc(-c4ccc(F)cc4)c3=O)[C@H]2N1C	.	-1.5	.	i	-1	1	-1.2	.	.
COc1cc(OC)c(-n2cc(-c3ccc(OC)c(OC)c3)[nH]c2=S)cc1Cl	-0.5	2.8	0.68	i	-1	-2	1.4	-26	2%
O=C(OCC(=O)N1CCCC1)c1ccccc1OCc1ccccc1	-3.3	.	0.72	.	.	.	.	-7	1%
C[C@@H]1CN([C@@H](C)CO)C(=O)c2cccc(NC(=O)c3ccncc3)c2O[C@H]1CN(C)Cc1ccc2c(c1)OCO2	.	4.0	.	i	-9	-13	-1.9	.	.
O=C(c1cn(Cc2ccccc2)nc1-c1cccnc1)N1CCN(Cc2ccccc2)CC1	-1.5	0.4	0.7	i	1	1	2.7	0	.
Cc1nc(-c2ccccc2)sc1C(=O)/C=C/c1ccc(Cl)cc1	-3.1	.	0.82	.	.	.	.	6	7%
Cc1cc([N+](=O)[O-])ccc1NC(=O)c1ccc(NC(=O)C(C)C)cc1	0.5	-0.2	0.64	i	9	11	2.0	4	6%
Cc1ccc(C(=O)NCCNc2ncc(C(F)(F)F)cc2Cl)cc1[N+](=O)[O-]	0.8	5.4	0.7	i	-15	-23	-1.6	-6	.
COCC(=O)Nc1ccc2c(c1)C(=O)N(C)C[C@H](OC)[C@@H](C)CN(Cc1ccccc1F)[C@@H](C)CO2	.	13	.	i	-4	-10	1.4	.	.
Cc1nc(NCCc2ccc(S(N)(=O)=O)cc2)c2c(C)c(C)sc2n1	1.6	.	0.67	.	.	.	.	-4	?
OCCCNc1ncnc2c1ncn2[C@H]1CN(Cc2ccc(Cl)cc2)C[C@@H](CO)O1	-3.6	1.8	.	i	.	.	.	.	.
COc1ccc(C(CNC(=O)c2ccc(S(=O)(=O)N3CCOCC3)cc2)N2CCCCC2)cc1 (configuration not stated)	0.6	.	0.68	.	.	.	.	-1	3%
O=C(c1cccc(Cl)c1)N1CCC(=O)N(C(CO)Cc2ccccc2)CC1 (configuration not stated)	1.0	-3.8	0.68	i	2	5	-0.5	-15	.
Cc1cccc(Cn2c(N3CCN(CCO)CC3)nc3c2c(=O)[nH]c(=O)n3C)c1	2.7	-0.8	0.67	i	5	10	-0.1	-25	.
COc1cc(OC)cc(OC(=O)C2CCN(S(=O)(=O)c3ccc(OC)c(OC)c3)CC2)c1	-0.5	0.5	0.7	i	7	7	-0.4	-1	2%
COC(=O)c1cc(-c2cc(OC)ccc2OC)nc2c1c(=O)n(C)c(=O)n2Cc1ccccc1	3.9	0.8	0.7	i	3	15	-1.4	-1	.
Cc1ccc(OCc2nc(C#N)c(NCc3ccco3)o2)cc1	8.2	.	0.65	.	.	.	.	-4	-2%
CCC(NC(=O)C1(C)CC1(Br)Br)c1ccc(C)cc1 (configuration not stated)	0.5	.	0.71	.	.	.	.	.	27%
CS(=O)(=O)c1ccc2nnn(OCC(=O)Nc3cccc(C#N)c3)c2c1	-1.8	11	0.68	i	1	4	5.9	41	79%
Cc1cc(C)n(-c2nnc(C)n2/N=C/c2ccccc2F)n1	0.3	.	.	.	.	.	.	-2	-2%
CCCCn1c(SCC(=O)Nc2ccc(OC)cc2)nc2ccc(N3CCOCC3)cc2c1=O	1.0	.	0.77	.	.	.	.	99*	22%&-1%
Cc1cccc(NC(=O)C2CCCN2S(=O)(=O)c2ccc(Cl)cc2)n1 (configuration not stated)	-0.2	-0.5	.	i	-3	-2	-0.4	-3	.
Cc1ccc(CS(=O)(=O)CCC(=O)NCc2ccc3c(c2)OCO3)cc1	-1.3	.	0.68	.	.	.	.	-6	2%
N=c1n(CC(=O)c2cccc([N+](=O)[O-])c2)c2ccccc2n1Cc1ccccc1	4.3	-1.4	0.71	i	-3	-2	0.4	-10	?
CC1CCC(C(C)C)C(OC(=O)COC(=O)c2ccc(N)cc2)C1 (configuration not stated)	-0.6	.	0.71	.	.	.	.	-2	.
Cc1ccc2cccc(N)c2n1	-0.3	-2.1	0.68	i	-2	-9	12	-153	-2%
CCN1[C@H](C(=O)NCc2cccc(OC)c2)[C@@H](CO)[C@@H]2Cn3c(ccc(C4=CCCC4)c3=O)[C@@H]21	.	-1.3	.	i	-2	-8	0.7	.	.
COc1cccc(NC(=O)CSc2nnnn2C(C)C)c1	-1.4	.	0.71	.	.	.	.	-9	75%
COc1ccnc(Oc2ccc(F)cc2)c1C(=O)N/C=N/OCc1cccc(F)c1	7.3	-8.6	0.7	i	-7	-17	-1.0	-31	10%
CCOC(=O)C1=C(COC(=O)CCOc2cc(C)ccc2C)NC(=O)NC1C (configuration not stated)	-4.8	-1.8	0.71	i	-4	-7	-1.3	-2	2%
COc1cccc(-c2cc(C(=O)Nc3cc(C)nn3-c3ccccc3)no2)c1	-3.3	.	0.74	.	.	.	.	.	-5%
COc1ccc(S(=O)(=O)NCCSCc2ccco2)cc1	2.2	.	0.71	.	.	.	.	3	24%
Cc1ccccc1OCC(=O)OCC(=O)NC12CC3CC(CC(C3)C1)C2	-0.9	-6.1	.	i	0	-2	1.9	.	0%
O=C(Nc1ccc(F)cc1)N1CCCCN2[C@H](CO)[C@H](c3ccc(C#CC4CC4)cc3)[C@@H]2C1	.	-3.0	.	i	-26	-59	16	.	.
O=C(NC1=NCCS1)C1COc2ccccc2O1 (configuration not stated)	-1.6	.	0.7	.	.	.	.	-15	25%
CCN(c1ccccc1C)S(=O)(=O)c1cc2c3c(c1)CCN3C(=O)CC2	-1.2	4.5	0.68	i	5	4	4.9	-3	5%
c1ccc2c(c1)nc1n2CCC1	-1.2	0.7	.	i	12	13	2.4	.	5%
CCC(=O)N(C)C[C@H]1[C@H](c2ccc(-c3cccnc3)cc2)[C@@H](CO)N1C(C)=O	.	0.2	.	i	0	1	-3.2	.	.

(list continues)
SMILES	HNF4A DNA FP	MLL AF4-AF9 inh	E coli growth	FGF22 binding	rRNA inh HTS	rRNA inh HTS OD600	rRNA inh HTS RFP	ALR inh	Vif A3G
CO[C@H]1CN(C)C(=O)c2cc(NC(=O)C3CCCC3)ccc2OC[C@@H](C)N(C(=O)CC2CC2)C[C@H]1C	.	0.6	.	i	-1	-2	0.4	.	.
COc1cccc2sc(Nc3nnc(-c4ccc(F)cc4)o3)nc12	-0.9	0.5	0.78	i	18	5	4.5	34	-6%
CC(=O)N1CC2(C1)[C@@H](c1ccc(-c3ccc(F)cc3)cc1)[C@H](CO)N2C(C)=O	.	-1.0	.	i	0	-1	0.5	.	.
CCOC(=O)N1CCC(Nc2c(-c3ccc(C)cc3)c(=O)c2=O)CC1	-0.7	.	0.72	.	.	.	.	10	73%
C/C=C/c1cc(OC)c2c(c1)[C@H](C)[C@@H](c1ccc(O)c(OC)c1)O2	-5.9	11	0.72	i	.	.	.	63	.
COc1ccc2c3c([nH]c2c1)[C@H](CO)N(C(=O)C1CC1)CC31CCN(C)CC1	.	-2.4	.	i	6	17	-3.1	.	.
COc1ccc(N/N=C(/C(N)=O)C2=NC(C)(C)Cc3ccccc32)cc1	0.2	37*	.	i	-11	-1	-0.2	?	8%
CC(C)C[C@H]1CN=C(Nc2ccccc2)N1CCCC1CCCC1	-2.4	6.7	.	i	-45	-75	-3.2	0	.
COC(=O)C1=C(COc2ccccc2)NC(=O)NC1c1ccc(Cl)cc1 (configuration not stated)	.	1.5	0.65	i	5	2	3.7	-1	.
Cc1cc(C)cc(NC(=O)C2CC3CCC2C3)c1 (configuration not stated)	-1.0	-0.5	0.71	i	7	5	-3.2	8	.

Compound activity deposited in PubChem BioAssay by several laboratories.
